# High-throughput results (PubChem BioAssay)
# Vaccinia inh: blocks a specific stage of Vaccinia orthopoxvirus infection; 89,000 compounds, 0.01% hits; activity change (mCherry), % (concentration not given with the values); Vaccinia-infected cells, mCherry/Venus stage reporter fluorescence; hits give low values; some inactives read as strong as hits;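 active = mCherry past -33% and 40 or more points under the early reporter, replicates agreeing; inconclusive = past -33% without that gap or agreement; tested in A549 cells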;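 note: scaled between vehicle wells and reference inhibitor wells; 23 nL library stock went into each well; one replicate is shown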
# Vaccinia inh Venus: also measured in Vaccinia inh; calls as there; activity change (Venus), %; measured here: Venus reporter, other viral stage;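 negative = less Venus signal; first of two replicates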
# Active calls of the source: *; ? = inconclusive; nt = not tested or not shown; & = joins results of further samples. These rows are one share of the data (hit frequency here may not be typical).
molecule	Vaccinia inh	Vaccinia inh Venus
CC(C)c1cn(CC[C@H]2CC[C@H](NS(=O)(=O)c3ccccc3)[C@H](CO)O2)nn1	14.2	12.3
C[C@@H]1CN([C@H](C)CO)C(=O)c2cccc(NC(=O)Nc3ccccc3)c2O[C@H]1CN(C)C(=O)Nc1ccc(C(F)(F)F)cc1	4.5	9.1
N#C[C@@H]1[C@@H](c2ccccc2)[C@H](CO)N1S(=O)(=O)Cc1ccccc1	10.1	5.4
CCCNC(=O)N(C)C[C@H]1Oc2ncc(C3=CCCC3)cc2C(=O)N([C@@H](C)CO)C[C@@H]1C	2.7	4.3
N#C[C@H]1[C@@H](c2ccc(/C=C/c3ccccc3)cc2)[C@@H](CO)N1C(=O)Nc1ccccc1F	-33.1	-15.6
O=C1CS(=O)(=O)C(c2ccccc2)N1c1cccc(Cl)c1 (stereo not given)	8.1	-6.3
CC(=O)N(C)C[C@@H]1Oc2cc(C#Cc3ccccc3)ccc2S(=O)(=O)N([C@H](C)CO)C[C@@H]1C	?	nt
C[C@@H]1CN([C@H](C)CO)C(=O)c2cc(NC(=O)Nc3ccc4c(c3)OCO4)ccc2O[C@@H](C)CCCCO[C@@H]1CN(C)Cc1ccc(C(F)(F)F)cc1	-10.4	-18.2
COc1ccccc1-c1cnc2c(c1)C(=O)N([C@H](C)CO)C[C@@H](C)[C@@H](CN(C)C(=O)c1cccnc1)O2	-1.2	-5.3
COc1ccc(NC(=O)Nc2cccc3c2O[C@@H](CN(C)S(=O)(=O)c2ccc(C)cc2)[C@H](C)CN([C@@H](C)CO)C3=O)cc1	12.8	1.9
C[C@@H]1CN([C@H](C)CO)C(=O)c2cc(NC(=O)CCCCCC(=O)Nc3ccccc3N)ccc2O[C@@H]1CN(C)C	14.9	4.2
C[C@H](CO)N1C[C@H](C)[C@@H](CN(C)S(=O)(=O)c2ccc(Cl)cc2)OCCCC[C@H](C)Oc2ccc(NC(=O)Nc3ccc(F)cc3)cc2C1=O	-30.4	-12.2
Cc1ccc(S(=O)(=O)N(C)C[C@@H]2Oc3ccc(NC(=O)C4CCCCC4)cc3CC(=O)N([C@H](C)CO)C[C@@H]2C)cc1	-5.1	-2.0
C[C@H]1CN([C@@H](C)CO)C(=O)c2ccccc2-c2ccccc2CO[C@@H]1CN(C)C(=O)Cc1ccccc1	27.0	18.7
CC(C)C(=O)Nc1ccc2c(c1)C(=O)N(C)[C@@H]1CC[C@H](CC(=O)NCC3CC3)O[C@@H]1CO2	5.8	4.2
CO[C@H]1CN(C)C(=O)c2cc(NC(=O)C3CC3)ccc2OC[C@@H](C)N(Cc2cncnc2)C[C@H]1C	-4.0	-3.8
COc1ccc(-c2cnc3c(c2)C(=O)N([C@H](C)CO)C[C@H](C)[C@H](CN(C)Cc2ccc(C(=O)O)cc2)O3)cc1	3.8	14.1
COc1cccc(C#Cc2ccc([C@H]3[C@@H](CO)N4C(=O)CN(C(=O)C5CC5)C[C@H]34)cc2)c1	?	nt
O=C(c1ccccc1)N1C[C@@H]2[C@H](c3ccccc31)[C@H](CO)N2Cc1cc(F)ccc1F	-7.3	-7.1
C[C@H](CO)N1C[C@H](C)[C@@H](CN(C)Cc2ccc(Oc3ccccc3)cc2)Oc2c(NC(=O)C3CCCCC3)cccc2C1=O	-9.7	-5.2
COc1cccc(CNC(=O)C[C@H]2CC[C@H](NC(=O)C3CC3)[C@@H](CO)O2)c1	10.8	7.9
O=C(NCC[C@H]1CC[C@H](NS(=O)(=O)c2ccccc2)[C@@H](CO)O1)c1cc(Cl)cc(Cl)c1	-28.3	-22.1
C[C@@H]1CN([C@@H](C)CO)C(=O)c2cc(NS(=O)(=O)c3ccccc3)ccc2O[C@@H](C)CCCCO[C@@H]1CN(C)Cc1ccccc1	?	nt
C[C@H]1CN([C@@H](C)CO)C(=O)c2cccc(NC(=O)Nc3ccc(F)cc3)c2O[C@@H]1CN(C)C(=O)Nc1ccc(C(F)(F)F)cc1	-30.3	-14.4
COc1cccc(S(=O)(=O)N2[C@@H]3CNC[C@H]2C3c2ccc(-c3cccc(C)c3)cc2)c1 (stereo not given in full)	16.2	24.0
COc1ccc(S(=O)(=O)Nc2cccc3c2O[C@H](CN(C)Cc2ccc(Oc4ccccc4)cc2)[C@H](C)CN([C@H](C)CO)C3=O)cc1	?	nt
C[C@H](CO)N1C[C@H](C)[C@H](CN(C)C(=O)CC2CC2)Oc2ncc(-c3ccc(C#N)cc3)cc2C1=O	23.6	6.8
COc1ccc(S(=O)(=O)N[C@H]2C=C[C@H](CC(=O)NCCc3ccncc3)O[C@@H]2CO)cc1	3.0	1.8
COc1cccc(C#Cc2ccc([C@@H]3[C@@H](CO)N4C(=O)CN(C(=O)C5CC5)C[C@@H]34)cc2)c1	3.6	2.5
C[C@H](CO)N1C[C@H](C)[C@H](CN(C)S(=O)(=O)c2cn(C)cn2)Oc2ccc(NC(=O)CCN3CCOCC3)cc2C1=O	14.0	11.4

# Fetched one by one from the list above (4):
molecule	Vaccinia inh	Vaccinia inh Venus
COc1ccccc1-c1cnc2c(c1)C(=O)N([C@H](C)CO)C[C@@H](C)[C@@H](CN(C)C(=O)c1cccnc1)O2	-1.2	-5.3
COc1ccc(S(=O)(=O)N[C@H]2C=C[C@H](CC(=O)NCCc3ccncc3)O[C@@H]2CO)cc1	3.0	1.8
C[C@H]1CN([C@@H](C)CO)C(=O)c2ccccc2-c2ccccc2CO[C@@H]1CN(C)C(=O)Cc1ccccc1	27.0	18.7
CO[C@H]1CN(C)C(=O)c2cc(NC(=O)C3CC3)ccc2OC[C@@H](C)N(Cc2cncnc2)C[C@H]1C	-4.0	-3.8

# New compounds follow
molecule	Vaccinia inh	Vaccinia inh Venus
C[C@@H]1CCCCO[C@H](CN(C)C(=O)Nc2ccc(C(F)(F)F)cc2)[C@H](C)CN([C@H](C)CO)C(=O)c2cc(NC(=O)CCC(F)(F)F)ccc2O1	-14.2	-1.2
CC(C)NC(=O)N(C)C[C@@H]1OCCCC[C@H](C)Oc2ccc(NS(C)(=O)=O)cc2C(=O)N([C@H](C)CO)C[C@@H]1C	18.9	10.8
CN(C)C(=O)c1cccc(-c2ccc3c(c2)[C@H]2[C@H](CCN2C(=O)C2CCOCC2)[C@@H](CO)N3)c1	11.7	4.6
O=C(NC1CCCCC1)N[C@H]1CC[C@H](CCNS(=O)(=O)c2ccc(Cl)cc2)O[C@@H]1CO	3.0	13.9
CC(C)NC(=O)Nc1ccc2c(c1)C(=O)N([C@H](C)CO)C[C@H](C)[C@H](CN(C)S(=O)(=O)c1cn(C)cn1)OCCCC[C@@H](C)O2	11.4	10.5
O=C(C[C@@H]1C=C[C@H](NS(=O)(=O)c2ccc(F)cc2)[C@@H](CO)O1)N1CCc2ccccc2C1	3.4	13.1
Cc1noc(C)c1S(=O)(=O)Nc1ccc2c(c1)C(=O)N([C@H](C)CO)C[C@@H](C)[C@@H](CN(C)Cc1ccc(Oc3ccccc3)cc1)O2	?	nt
C[C@@H]1CN([C@H](C)CO)C(=O)c2cc(C#Cc3cccnc3)cnc2O[C@@H]1CN(C)C(=O)CC1CC1	14.2	13.2
C[C@@H]1CN([C@@H](C)CO)C(=O)c2cc(NS(=O)(=O)c3cccs3)ccc2O[C@H]1CN(C)C(=O)Nc1ccc(C(F)(F)F)cc1	7.2	4.9
O=C(C1CCCCC1)N1C[C@@H]2[C@H](c3ccccc31)[C@H](CO)N2C(=O)c1ccccc1	7.4	8.9
O=C(Nc1ccc(Cl)cc1)N[C@@H]1CC[C@@H](CCn2cc(C3(O)CCCC3)nn2)O[C@H]1CO	-23.2	-16.0
COC(=O)C[C@@H]1CC[C@H]2[C@H](COc3ccc(NC(=O)Nc4cccc(C)c4)cc3C(=O)N2C)O1	-22.8	-10.9
CS(=O)(=O)N1CC(=O)N2[C@H](CO)[C@@H](c3ccc(C#CC4CCCC4)cc3)[C@H]2C1	13.9	3.9
CN(C)CCCNC(=O)C[C@@H]1CC[C@H](NS(=O)(=O)c2ccccc2)[C@H](CO)O1	8.8	5.8
C[C@@H]1CCCCO[C@@H](CN(C)C(=O)Cc2ccccc2)[C@@H](C)CN([C@@H](C)CO)C(=O)c2cc(NC(=O)c3ccccc3)ccc2O1	-13.5	-11.6
C[C@H](CO)N1C[C@H](C)[C@H](CN(C)CC2CCCCC2)Oc2ccc(NC(=O)CCN3CCOCC3)cc2C1=O	2.9	0.9
O=C(N[C@@H]1CC[C@H](CCn2cc(C3(O)CCCC3)nn2)O[C@@H]1CO)C1CC1	-1.2	0.9
C[C@H](CO)N1C[C@H](C)[C@@H](CN(C)CC2CCOCC2)Oc2ncc(Br)cc2C1=O	8.7	8.4
C[C@H]1CN([C@@H](C)CO)C(=O)c2cc(/C=C/c3ccccc3)cnc2O[C@@H]1CN(C)Cc1cccnc1	-28.8	-18.5
C[C@@H]1CN([C@@H](C)CO)C(=O)c2cc(NC(=O)NC3CCCCC3)ccc2O[C@H]1CN(C)Cc1ccc(Oc2ccccc2)cc1	?	nt
Cn1cnc(S(=O)(=O)N2C[C@H](O)COC[C@@H]3O[C@@H](CC(=O)NC4CCCC4)CC[C@H]32)c1	-2.1	-2.2
C[C@@H]1CN([C@@H](C)CO)C(=O)CCCn2nncc2CO[C@H]1CN(C)C(=O)Nc1ccc(N2CCCCC2)cc1	11.4&-5.7	0.7&-6.3
CO[C@@H]1CN(C)C(=O)c2ccc(NC(=O)c3ccc4c(c3)OCO4)cc2OC[C@H](C)N(CCC(F)(F)F)C[C@H]1C	-28.3	-13.6
Cc1ccc(S(=O)(=O)N(C)C[C@@H]2OCCCC[C@H](C)Oc3ccc(NC(=O)CCCN(C)C)cc3C(=O)N([C@H](C)CO)C[C@@H]2C)cc1	-33.4	-25.2
O=C(C[C@@H]1C=C[C@@H](NC(=O)C2CC2)[C@H](CO)O1)NCC1CC1	4.7	3.4
C[C@H]1CN([C@@H](C)CO)C(=O)Cc2cc(NC(=O)C3CC3)ccc2O[C@@H]1CN(C)C(=O)Nc1ccc(F)cc1	4.9	11.3
C[C@@H]1CN([C@H](C)CO)C(=O)c2cccc(NC(=O)CCCCCC(=O)Nc3ccccc3N)c2O[C@@H]1CN(C)S(=O)(=O)c1ccc(F)cc1	-19.9	-2.0
CCCNC(=O)N1C[C@@H](C)[C@@H](OC)CN(C)C(=O)c2cc(NS(=O)(=O)CC(F)(F)F)ccc2OC[C@@H]1C	-8.6	-6.3
COc1cccc(S(=O)(=O)Nc2ccc3c(c2)OC[C@@H](C)NC[C@H](C)[C@@H](OC)CN(C)C3=O)c1	7.5	5.3
CNC[C@H]1Oc2cc(C#CCC3CCCC3)ccc2S(=O)(=O)N([C@H](C)CO)C[C@@H]1C	?	nt

# Complete entries, quoted from the list. Order of screens: Vaccinia inh | Vaccinia inh Venus
# COc1ccccc1-c1cnc2c(c1)C(=O)N([C@H](C)CO)C[C@@H](C)[C@@H](CN(C)C(=O)c1cccnc1)O2 is listed as -1.2 | -5.3
# CN(C)C(=O)c1cccc(-c2ccc3c(c2)[C@H]2[C@H](CCN2C(=O)C2CCOCC2)[C@@H](CO)N3)c1 is listed as 11.7 | 4.6

# Further structures.
molecule	Vaccinia inh	Vaccinia inh Venus
CCNC(=O)[C@@H]1[C@@H](CO)[C@@H]2Cn3c(ccc(C4=CCCC4)c3=O)[C@@H]2N1C(=O)C1CC1	-2.9	2.6
COc1ccc(C#Cc2cnc3c(c2)C(=O)N([C@@H](C)CO)C[C@@H](C)[C@@H](CN(C)C(=O)CC2CC2)O3)cc1	-24.6	-18.3
N#C[C@H]1[C@@H](c2ccc(C#CC3CCCCC3)cc2)[C@@H](CO)N1C(=O)c1cccc(F)c1	1.7	-6.0
CCCNC(=O)N[C@H]1CC[C@H](CC(=O)NC2CCCCC2)O[C@@H]1CO	0.1	2.5
COC(=O)[C@H]1[C@H](CO)[C@H]2Cn3c(ccc(-c4ccccc4)c3=O)[C@@H]1N2CC1CCCCC1	-10.8	-11.6
C[C@H](CO)N1C[C@H](C)[C@@H](CN(C)C(=O)CC2CC2)Oc2cc(C3=CCCCC3)ccc2S1(=O)=O	-17.4	-14.1
C[C@H]1CCCCO[C@H](CN(C)C(=O)NC2CCCCC2)[C@@H](C)CN([C@@H](C)CO)C(=O)c2cc(NC(=O)Nc3ccc(F)cc3)ccc2O1	-8.1	-11.6
O=C(N[C@@H]1CC[C@@H](CC(=O)N2CCC(Cc3ccccc3)CC2)O[C@H]1CO)c1cnccn1	-4.4	-3.7
COCC(=O)Nc1ccc2c(c1)C(=O)N(C)C[C@@H](OC)[C@@H](C)CN(Cc1ccccc1)[C@H](C)CO2	-9.6	-7.5
CC(C)NC(=O)N[C@@H]1CC[C@H](CC(=O)N2CCCCC2)O[C@@H]1CO	3.6	2.2
CO[C@H]1CN(C)C(=O)c2ccc(NC(=O)c3cnccn3)cc2OC[C@@H](C)N(C(C)=O)C[C@H]1C	1.1	0.0
Cc1noc(C)c1S(=O)(=O)Nc1ccc2c(c1)CC(=O)N([C@H](C)CO)C[C@@H](C)[C@@H](CN(C)C(=O)Nc1ccc(F)cc1)O2	11.7	7.9
COCC(=O)N(C)C[C@H]1Oc2cc(C3=CCCCC3)ccc2S(=O)(=O)N([C@@H](C)CO)C[C@@H]1C	-17.1	-17.4
COc1ccc2c3c(n(C)c2c1)[C@@H](CO)N(CC1CCCCC1)CC31CCN(Cc2nccs2)CC1	-17.5	-15.1
Cc1noc(C)c1NC(=O)N(C)C[C@H]1OCCCC[C@@H](C)Oc2ccc(NC(=O)CCC(F)(F)F)cc2C(=O)N([C@H](C)CO)C[C@H]1C	46.2	16.3
CO[C@@H]1CN(C)C(=O)c2ccc(NC(=O)C3CC3)cc2OC[C@@H](C)N(C(=O)c2ccccc2F)C[C@@H]1C	14.0	0.8
